# HSD17B inh – inhibitors of human HSD17B10 dehydrogenase | Q99714 | recombinant HSD17B10, NADH fluorescence kinetic; many of its hits are not listed in these tables | Potency, µM (series often up to 57.1 µM), for inactives: at the top dose activity change, negative = inhibition, usual class: inhibitors | 75,000 tested, 7.6% active | AID 893; active means well fitted inhibition curve with a large enough effect; inconclusive means small, poorly fitted or top-dose-only effect; inactive means no such curve, though single readings can be large or run the other way;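 further: the protocol describes HADH2 (HSD17B10) and not the HSD17B4 of the title; nearly all actives have a fitted effect of over 70% in size; most hits overshoot -100% by far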
#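 20 nM HADH2, pH 9.0 Tris/Tween; cpd preinc 15 min RT; start w/ 1 mM NAD+ + 90 uM b-hydroxybutyryl-CoA; kinetic fluor ex360/em450 q30s x 4 min; delta last-first.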
# An asterisk follows results filed as active; ? = inconclusive; [ ] = another dose, or the depositor's remark. On the % scale 0 is the no-effect control and ±100 the full control effect; potency means the concentration at half of the fitted maximal effect.
SMILES,HSD17B inh
CCC(=O)N(Cc1ccco1)c1nc(-c2ccccc2)cs1,0%
COCCn1c(SCC(=O)Nc2cccc(C)c2)nnc1C(C)C,-1%
COc1ccccc1OCC(=O)OCC(=O)NCCN1C(=O)CSC1=O,-3%
CCCCNC(=O)C(NS(=O)(=O)c1cccc2nsnc12)c1ccccc1 (centres undefined),3%
CCn1c(Sc2ccc(N)cc2Cl)nc2ccccc21,-11%
O=C(c1cnc2ccccn2c1=O)N1CCc2ccccc21,-8%
CCN(c1cccc(C)c1)S(=O)(=O)c1ccc2c(c1)CCN2C(C)=O,3%
CC(Sc1cccc2cccc(C(=O)O)c12)C(=O)O (centres undefined),8%
O=c1c(-c2ccc(F)cc2)nc2cnc(N3CCOCC3)nc2n1-c1ccccc1,?
O=C(Nc1nc2c(s1)CCCC2)c1ccc(Br)o1,-24%
COc1cccc(CC(=O)NCC2COc3ccccc3O2)c1OC (centres undefined),5%
Cc1ncc([N+](=O)[O-])n1C[C@H](O)CCl,-3%[25.6 µM]
O=c1cc(CSc2nnnn2-c2ccccc2)[nH]c2[nH]n(-c3ccccc3)c(=O)c12,?
CCCCCSc1nc2c(cnn2-c2ccccc2)c(=O)[nH]1,11%
Brc1ccc(-c2nc(-c3ccncc3)no2)o1,1%
CCc1cc2c(nc1CC)CCN(CC/C(C)=N/O[C@@H](C)c1cc(-c3c(C)cc(C)cc3C)no1)C2,-2%[11.4 µM]
O=C(c1ccccc1)N1CCCC(c2nc3c(nnn3Cc3ccccc3)c(=O)[nH]2)C1 (centres undefined),-1%
CCOC(=O)C1(C)NC(c2ccc(N(C)C)cc2)C2C(=O)N(CC)C(=O)C21 (centres undefined),-6%
Cc1nc(NC2=NCN(CC3CCCO3)CN2)nc2ccccc12 (centres undefined),3%
CCn1c(=O)cc(OCC(=O)NCCC(C)C)c2ccccc21,-1%
Cc1cc(C)n2c(SC/C(O)=C(\C#N)c3nc4ccccc4[nH]3)nnc2n1,25µM*
O=C(NCc1ccccn1)c1cc2n(n1)C(C(F)(F)F)CC(c1ccco1)N2 (centres undefined),-5%
O=C(NCc1cccnc1)C1CC(=O)N(c2ccc(F)cc2)C1 (centres undefined),3%
CCCCCCCC/C=C/CCCCCCCCOP(=O)([O-])OCC[N+](C)(C)C,2%
CCC(=O)N1CCc2cc(S(=O)(=O)CCC(=O)NCCC3=CCCCC3)ccc21,8%

# Next results.
SMILES,HSD17B inh
COc1ccc(C(=O)NCc2cccnc2)cc1OC,-9%
Cc1cc(SCC(=O)c2ccccc2)n2nc(C)nc2n1,-4%
COc1cccc(-c2cncnc2Nc2ccccc2)c1,0%
CCOC(=O)N1CCC(NC(=O)C2CCN(S(=O)(=O)c3cnc[nH]3)CC2)CC1,-3%
N#Cc1c(N)sc(=S)c2c1CCCC2,25µM*
CC(C)(C)OC(=O)NCCc1nnc(SCC(=O)c2ccc(Cl)cc2)o1,-2%
Cc1ccccc1NC(=O)N1CCCC(c2nc(-c3ccc(C(C)C)cc3)no2)C1 (centres undefined),-7%
CCNC(=O)CP(=O)(c1ccccc1)c1ccccc1,4%
O=C(CSc1ccc2nnc(-c3ccccn3)n2n1)Nc1ccc2c(c1)OCO2,9%
Cc1cccc(-c2noc(Cc3ccccc3)n2)c1,5%
COc1ccc2c(c1)CCC1[C@@H]2CCC2(C)[C@@H](NCCCCCCN3C(=O)C=CC3=O)CC[C@@H]12 (some centres undefined),11%
CCCCCn1c(C(C)NC(=O)CCC)nc2ccccc21 (centres undefined),7%
COc1cc2nc(CN3C(=O)c4ccccc4C3=O)oc(=O)c2cc1OC,124%[activator]
COc1ccc(NS(=O)(=O)c2ccc(NC(C)=O)cc2)cc1OC,4%
CC1CCCCN1CCn1cnc2c([nH]c3ccccc32)c1=O (centres undefined),-19%
Cc1c(C(=O)NCCC2=CCCCC2)oc2ccc(S(=O)(=O)N3CCC4(CC3)OCCO4)cc12,4%
CCn1cc(C(=O)O)c(=O)c2cnc(N3CCN(C(=O)Nc4ccccc4)CC3)nc21,-3%
O=S(=O)(Nc1ccc2c(c1)nc1n2CCN(Cc2ccccc2)C1)c1ccc(Cl)cc1,?
CC(=O)OC(C)C,0%
Cc1ccc(C)c2[nH]c(=O)c(CN(CCCN(C)C)C(=O)NCc3ccccc3)cc12,?
CCOc1ccc(NC(=O)c2cnc3scc(C)n3c2=O)cc1,?
CCOc1c(Br)cc(C(N)=O)cc1OC,-5%
O=C(O)c1c[nH]c2cc(OCc3ccccc3)ccc2c1=O,-3%[11.4 µM]
COC(=O)C1=C(O)CSC1=Nc1cccc(C(F)(F)F)c1,-16%
O=C(Nc1ccccc1C(=O)O)c1ncn[nH]1,1%

# Looked up by compound from above, five records:
SMILES,HSD17B inh
COC(=O)C1=C(O)CSC1=Nc1cccc(C(F)(F)F)c1,-16%
N#Cc1c(N)sc(=S)c2c1CCCC2,25µM*
Cc1c(C(=O)NCCC2=CCCCC2)oc2ccc(S(=O)(=O)N3CCC4(CC3)OCCO4)cc12,4%
CC1CCCCN1CCn1cnc2c([nH]c3ccccc32)c1=O (centres undefined),-19%
CCOc1ccc(NC(=O)c2cnc3scc(C)n3c2=O)cc1,?

# Remaining list, next part.
SMILES,HSD17B inh
COc1ccc(NC(=O)CSc2nnc(Cc3ccccc3)o2)c(OC)c1,2%
O=C(C1CCN(S(=O)(=O)c2cccc3cccnc23)CC1)N1CCN(c2ccccc2)CC1,1%
c1ccc(-c2nnc3sc(-c4ccncc4)nn23)cc1,-23%
Cc1cc(S(=O)(=O)NCC(=O)O)ccc1F,9%
COc1ccc(S(=O)(=O)N2CCC(C(=O)N3CCc4ccccc4C3)CC2)cc1,10%
O=C(c1cccc(Cl)c1)N1CCCC(C(=O)N2CCCCCC2)C1 (centres undefined),-1%
O=C1C2ON(c3ccc(Br)cc3)C(c3cccnc3)C2C(=O)N1C1CCCCC1 (centres undefined),2%
CCCCOc1ccc(C(C)NC(=O)C2CCCN(S(=O)(=O)CC)C2)cc1 (centres undefined),-1%
CCOC(=O)C1=C2SCCN2C(=O)C(C#N)C1(C)C (centres undefined),3%
Cc1ccc(-c2nc(CS(=O)CC(=O)NC3CCCC3)c(C)o2)cc1 (centres undefined),-6%
Cn1cccc1C(=O)OCc1csc(-c2ccccc2)n1,-21%
CCOC(=O)C1CCCN(CCC(C)c2ccccc2)C1 (centres undefined),7%
CCn1c(SCC(=O)N2CC(=O)Nc3ccccc32)nnc1-c1ccoc1C,0%
COc1ccc(Br)cc1CNC(=O)CCc1nc(-c2ccc(C)cc2)no1,15%
CN(C)C(=O)N1CCC(C(=O)NCc2cccs2)CC1,5%
O=C(NCc1ccco1)c1ccc(CS(=O)(=O)Cc2ccc(Cl)cc2)o1,-10%
O=C1c2ccccc2-c2ncnc3c(N4CCOCC4)cc(N4CCOCC4)c1c23,1%
CCn1c(SCC(=O)Nc2cc(C)on2)nc2c(c1=O)SC(C)C2 (centres undefined),-8%
Cc1nnc(Oc2ccccc2F)c2ccccc12,1%
CN(Cc1ccco1)c1ncncc1-c1ccccc1Cl,?
COc1ccc(NS(=O)(=O)c2ccc(NC(=O)C(C)(C(F)(F)F)C(F)(F)F)cc2)nn1,7%
O=C(CN1C(=O)NC2(CCCCCCC2)C1=O)N1CCOCC1,6%
CC(=O)OC1COC(n2ccc3ccccc32)C(OC(C)=O)C1OC(C)=O (centres undefined),2%
CCOC(=O)C1CCCN(C(=O)CN2C(=O)C(CC)Oc3ccc(C)cc32)C1 (centres undefined),4%
COc1cc(CN2CCN(C(=O)CC(C)C)CC2)cc(OC)c1OC,92%[activator]

# The final 5 entries of the part before come first, to join the parts.
SMILES,HSD17B inh
COc1ccc(NS(=O)(=O)c2ccc(NC(=O)C(C)(C(F)(F)F)C(F)(F)F)cc2)nn1,7%
O=C(CN1C(=O)NC2(CCCCCCC2)C1=O)N1CCOCC1,6%
CC(=O)OC1COC(n2ccc3ccccc32)C(OC(C)=O)C1OC(C)=O (centres undefined),2%
CCOC(=O)C1CCCN(C(=O)CN2C(=O)C(CC)Oc3ccc(C)cc32)C1 (centres undefined),4%
COc1cc(CN2CCN(C(=O)CC(C)C)CC2)cc(OC)c1OC,92%[activator]
CCOC(=O)NC1CCS(=O)(=O)C1 (centres undefined),0%
CCCCCC(=O)Nc1ccc(Cl)cn1,3%
O=C(c1c(F)cccc1F)N(Cc1ccccn1)C1CCCC1,7%
CN(C1CCCCC1)S(=O)(=O)c1ccc(NC(=O)CCC(=O)O)cc1,-2%
CCCCc1nnc(NC(=O)C2CCCO2)s1 (centres undefined),5%
Cc1ccc(-n2c(C)c3c(C)nnc(C)c3c2C)cc1,-3%
CCOc1ccc(NC(=O)c2cccc3c2C(=O)N(Cc2cccnc2)C3)cc1,0%
CC(C)[C@H](N=Cc1ccccc1O)C(=O)O,-1%[11.4 µM]
COc1ccc2oc(-c3ccccc3)c(OC)c(=O)c2c1,20µM*
CC(=O)N1CCC2(CCCN(Cc3nccs3)C2)CC1,-7%
COc1ccc2c(c1)C(NC(C)=O)C(=O)N2C (centres undefined),-1%
COc1cccc(C(=O)Nc2cccc(C(=O)N3CCOCC3)c2)c1,8%
Cc1csc(NC(=O)C(Cc2ccccc2)n2cccc2)n1 (centres undefined),-28%
Cc1ccc(S(=O)(=O)N2CCCC2C(=O)Nc2ccc(O)cc2)cc1 (centres undefined),-4%
CCOC(=O)CSc1ccc2nnc(-c3cccnc3)n2n1,32µM*
Cc1cc(N2CCN(C3CCCC3)CC2)n2nc(C)c(-c3ccccc3)c2n1,?
CC(C)(C)c1ccc(-c2noc(CCC(N)=O)n2)cc1,-1%
CCn1c(C(=O)NCc2ccccn2)cc2sccc21,-8%
C=CCN1C(=O)c2ccccc2Sc2ccc(C(=O)N3CCN(C)CC3)cc21,3%
O=C(Nc1ccc(N2CCOCC2)cc1)c1cccc(S(=O)(=O)N2CCCC2)c1,7%
CCn1c(SCC(=O)Nc2nccs2)nnc1-c1ccc(S(=O)(=O)N2CCCCC2)cc1,6%
O=C(c1csnn1)N1CCC2(CCN(Cc3ccccc3)CC2)CC1,8%
O=C(OCc1cc(Cl)ccc1OC(F)F)c1cc(S(=O)(=O)O)ccc1O,150%[activator]
O=C(NCC1CCCO1)NC12CC3CC(CC(C3)C1)C2 (centres undefined),6%
COc1cc2c(cc1OC)C1(O)C(=O)c3ccc(O)c(C(=O)O)c3OC1CO2 (centres undefined),-17%

# Structures from the list above with a furan ring, fused or not (8):
SMILES,HSD17B inh
CCC(=O)N(Cc1ccco1)c1nc(-c2ccccc2)cs1,0%
O=C(Nc1nc2c(s1)CCCC2)c1ccc(Br)o1,-24%
Brc1ccc(-c2nc(-c3ccncc3)no2)o1,1%
O=C(NCc1ccccn1)c1cc2n(n1)C(C(F)(F)F)CC(c1ccco1)N2 (centres undefined),-5%
Cc1c(C(=O)NCCC2=CCCCC2)oc2ccc(S(=O)(=O)N3CCC4(CC3)OCCO4)cc12,4%
CCn1c(SCC(=O)N2CC(=O)Nc3ccccc32)nnc1-c1ccoc1C,0%
O=C(NCc1ccco1)c1ccc(CS(=O)(=O)Cc2ccc(Cl)cc2)o1,-10%
CN(Cc1ccco1)c1ncncc1-c1ccccc1Cl,?

# Next section:
SMILES,HSD17B inh
Cc1ccc(OC(=O)CCc2c(C)nc3ncnn3c2C)cc1,-8%
O=S(=O)(NC1CC1)c1ccc(S(=O)(=O)N2CCc3ccccc32)cc1,0%
COc1ccc(NC(=O)CN(C)S(=O)(=O)c2ccccc2)cc1OC,4%
Cc1ccccc1Cn1cnc2c(nnn2Cc2ccc(F)cc2)c1=O,-6%
O=S(=O)(NC1CCCc2ccccc21)c1cnc[nH]1 (centres undefined),6%
Cc1cc(=O)oc2ccc(OC(=O)c3cccc(S(=O)(=O)N4CCOCC4)c3)cc12,-10%
COc1ccc(OC)c(NS(=O)(=O)c2ccc(NC(=O)C3COc4ccccc4O3)cc2)c1 (centres undefined),-8%
COCCNC(=O)CC(NS(=O)(=O)c1ccc(C)cc1)c1ccco1 (centres undefined),-12%
CCC(C)(C)NC(=O)C(c1cccnc1)N(CCOC)C(=O)Cn1nnc2ccccc21 (centres undefined),5%
O=S(=O)(c1ccc2c(c1)OCCO2)N1CCC(n2cnc3cc(F)ccc32)CC1,-3%
O=C(O)C1=C(C(=O)Nc2ccc(F)c(Cl)c2)CCCC1,-5%
c1csc(-c2cnc3n2CCCC3)c1,5%
c1ccc2c(c1)nc1n2CCS1,-2%
C=CCNC(=O)C1CC(=O)N(c2ccc(OCC(=O)Nc3ccc(OC)cc3)cc2)C1 (centres undefined),2%
Nc1ccc2c(c1)C(=O)c1ccccc1C2=O,1%
O=C(c1ccc(Cl)cc1)C1CCN(C(=O)N2CCOCC2)CC1,3%
CC(=O)Oc1ccc2c(c1OC(C)=O)OCC1(O)Cc3c(cc(OC(C)=O)c(OC(C)=O)c3OC(C)=O)C21 (centres undefined),-13%
C=CCn1c2ccccc2c2nnc(SCc3ccc4nonc4c3)nc21,-4%
CCOC(=O)Nc1ccc2ncn(C)c(=O)c2c1,-18%
Cc1cccn2cc(CNC(=O)c3ccco3)nc12,11%
CCOC(=O)C1=C(C)N(CCO)C(=O)NC1c1ccccc1 (centres undefined),-8%
CCCCNc1nc(C)nc2c1nc(-c1ccccc1)n2C1CCN(Cc2ccccc2)C1 (centres undefined),?
O=S(=O)(NCc1ccccn1)c1ccc2c(c1)OCCO2,-4%
CCOC(=O)c1c(C)c(C(=O)NCc2ccc3c(c2)OCO3)c(C)n1C,5%
COCC(=O)N1CCC2(CC1)CCN(c1cccc(-c3ccccc3)c1)CC2,?

# Next compounds
SMILES,HSD17B inh
COc1cccc(C(=O)Nc2cnc(NC(=O)c3ccco3)cc2C)c1,-2%
Cc1ccc(C(=O)O)cc1S(=O)(=O)N1CCSCC1,-7%
CS(=O)(=O)Nc1cccc2cccnc12,4%
CC(=O)c1ccsc1B(O)O,8%
FC(F)(F)c1cc(-c2cccs2)nc(N2CCOCC2)n1,13µM*
O=C(CSc1oc(-c2ccc(F)cc2)nc1S(=O)(=O)c1ccc(F)cc1)NCC1CCCO1 (centres undefined),2%

# Only part of the results is shown, so the mix of outcomes need not match the whole.
